GAA inhib: qHTS Assay for Inhibitors of Human alpha-Glucosidase as a Potential Chaperone Treatment of Pompe Disease | 200,000 compounds, 0.005% hits | purified human GAA, 4-MU-alpha-glucoside fluorescence | AID 1466, 2008 | Potency, µM (titrated, usually from 76.9 µM), for the others: at the highest dose activity change, negative = inhibition, usual class: inhibitors | Lysosomal alpha-glucosidase (Homo sapiens), P10253;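 further: plate controls were uninhibited enzyme wells for no effect and no-enzyme background for full effect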
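Activity normalized between no-enzyme (basal) and enzyme-only wells. Conditions: 4 nM human enzyme, 400 uM fluorogenic substrate, citrate/phosphate pH 5.0 with Tween-20, 20 min room temperature, compounds up to 77 uM.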
Epigenetic derep: Quantitative High-Throughput Screen for Regulators of Epigenetic Control. murine LDR cells, GFP reporter derepression, 30 h. Potency, µM (highest dose often 53.9 µM), for the others: at the highest dose GFP activation, hits mostly activators. 280,000 compounds, 0.2% hits; further: % of control where 0% means no effect; nearly all actives have a fitted effect of over 60% in size
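Readout is the number of GFP-expressing murine LDR cells, counted by cytometry following washing. Cells were treated with compound for 30 h at 37 C; the stably integrated CMV-GFP locus is normally silent.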
GAA glycogen: qHTS Assay for Inhibitors and Activators of Human alpha-Glucosidase Cleavage of Glycogen | Potency, µM (top dose mostly 76.4 µM), for inactives: at the top dose activity change, negative = inhibition, most hits filed as inhibitors | 300,000 compounds, 0.38% hits | recombinant GAA, glycogen substrate, Amplex Red glucose oxidase fluorescence | Lysosomal alpha-glucosidase (Homo sapiens), P10253 | AID 2100, 2009;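 further: 0% = full enzyme reaction and -100% = no-enzyme basal signal; the screen sought inhibitors and activators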
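Natural-substrate format: glycogen cleavage by 4 nM human enzyme, glucose read by Amplex Red coupling (Ex 573, Em 610 nm). Normalized to enzyme and no-enzyme controls.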
NPSR antag: qHTS Assay for Antagonists of the Neuropeptide S Receptor: cAMP Signal Transduction; Potency, µM (doses to about 38.3 µM), without a hit: top-dose activity change, negative = inhibition, usual class: inhibitors; Q6W5P4; 220,000 compounds, 1% hits; CHO-NPSR cells, cAMP TR-FRET, antagonist mode; further: on the % scale 0 is the no-effect control and ±100 the full control effect; nearly all actives have a fitted effect of over 50% in size; many of its hits are not listed in these tables
Target sequence (Q6W5P4 whole entry, looked up): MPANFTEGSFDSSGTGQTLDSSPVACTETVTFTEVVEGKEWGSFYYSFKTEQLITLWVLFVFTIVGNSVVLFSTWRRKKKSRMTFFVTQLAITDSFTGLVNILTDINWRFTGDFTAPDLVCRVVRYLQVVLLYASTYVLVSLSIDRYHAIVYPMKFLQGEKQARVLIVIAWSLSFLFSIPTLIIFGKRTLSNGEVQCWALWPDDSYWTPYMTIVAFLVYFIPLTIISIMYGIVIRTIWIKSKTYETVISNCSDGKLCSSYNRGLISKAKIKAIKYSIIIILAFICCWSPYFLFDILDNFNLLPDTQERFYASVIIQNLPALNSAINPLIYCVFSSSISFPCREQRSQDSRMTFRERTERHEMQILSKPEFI
Tau fluor counter: Counterscreen qHTS for Inhibitors of Tau Fibril Formation, Fluorescence Polarization. tau K18 P301L (four-repeat tau fragment) Alexa594 fluorescence, heparin fibrillization. Potency, µM (highest dose often 57.7 µM), for the others: top-dose activity change, negative = decrease. 280,000 compounds, 0.93% hits. AID 1463, 2008; further: on the % scale 0 is the no-effect control and ±100 the full control effect; nearly all actives have a fitted effect of over 55% in size
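Human K18 P301L tau (15 uM unlabeled plus 0.24 uM Alexa 594-labeled, final) in 100 mM sodium acetate pH 7 was mixed with compound and 20 uM heparin and incubated 6 hr at 37 C.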
aGlu spleen mod: qHTS Assay for Inhibitors and Activators of Human alpha-Glucosidase From Spleen Homogenate. Lysosomal alpha-glucosidase (Homo sapiens), P10253. human spleen homogenate, 4-MU-alpha-glucoside fluorescence. Potency, µM (highest dose often 79.9 µM), inactives show top-dose activity change, negative = inhibition, actives largely listed as inhibitors. 240,000 compounds, 0.006% hits;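 further: 0% = enzyme with vehicle and -100% = no enzyme basal signal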
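Compounds were titrated against alpha-glucosidase in spleen homogenate at pH 5.0, with 1 mM 4-methylumbelliferyl substrate for 40 min at 37 C. Reactions were quenched with pH 10 NaOH/glycine and fluorescence measured.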
GLA spleen mod: qHTS Assay for Inhibitors and Activators of Human alpha-Galactosidase From Spleen Homogenate. human spleen homogenate, 4MU-alpha-Gal fluorescence, 40 min. Potency, µM (titrated, usually from 80 µM), without a hit: at the top dose activity change, negative = inhibition, usual class: inhibitors. 240,000 compounds, 0.008% hits. AID 2107, 2009;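 further: 0% = enzyme with vehicle and -100% = no enzyme basal signal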
Target sequence (P06280 32-429 limits assumed): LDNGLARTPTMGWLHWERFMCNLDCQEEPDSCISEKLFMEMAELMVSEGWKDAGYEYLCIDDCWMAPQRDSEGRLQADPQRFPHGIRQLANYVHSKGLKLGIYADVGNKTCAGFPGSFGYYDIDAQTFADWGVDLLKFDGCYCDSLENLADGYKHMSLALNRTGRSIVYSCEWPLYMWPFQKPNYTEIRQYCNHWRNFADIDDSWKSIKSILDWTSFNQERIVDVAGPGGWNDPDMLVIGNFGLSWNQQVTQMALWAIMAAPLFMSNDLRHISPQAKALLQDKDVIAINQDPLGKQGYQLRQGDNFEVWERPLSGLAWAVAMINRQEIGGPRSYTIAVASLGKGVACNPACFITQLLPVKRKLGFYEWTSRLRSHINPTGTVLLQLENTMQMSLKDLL
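Fluorogenic readout (Ex 365/Em 440 nm) of 4-methylumbelliferone released from 1 mM 4-MU-alpha-galactoside by spleen homogenate, 40 min at 37C, pH 5.0. Data normalized to no-enzyme and enzyme controls; Hill-equation AC50 from compound titrations.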
Starred values were filed as active, the others as inactive; ? = inconclusive; · = not tested or not shown; & = joins results of further samples; [ ] = remark or other dose. The call rests on the fitted dose curve; in most records, active means well fitted curve in the direction sought with a large enough effect; inconclusive means small, poorly fitted or top-dose-only effect, or another doubt; inactive means no such curve, though single readings can be large; an effect the other way counts as inactive or inconclusive. Potency means the concentration at half of the fitted maximal effect. The list is partial; rates above refer to the full screens.

SMILES	GAA inhib	Epigenetic derep	GAA glycogen	NPSR antag	Tau fluor counter	aGlu spleen mod	GLA spleen mod
COc1ccc([N+](=O)[O-])cc1NC(=O)COC(C)=O	?	-4.4%	8%	22%	-8%	1%	0%
CN1CCC(OC(=O)COc2ccc(C(C)(C)C)cc2)CC1	-3%	0.0%	6%	9%[46.1 µM]	-3%	-12%	-9%
COc1ccc(N2CCN(C(=O)C3CCN(S(=O)(=O)c4ccc(F)cc4)CC3)CC2)cc1	-3%	-1.9%[10.1 µM]	7%	-7%	3%	0%	0%
NC(=O)CSc1nnc(COc2ccccc2)n1C1CCCCC1	0%	0.0%	-9%	0%[46.1 µM]	-3%	5%	7%
Cc1ccc(C(=O)N2CCN(c3ccc(NC(=O)c4cccnc4)cc3)CC2)cc1	-1%	-1.0%	-4%	-6%[46.1 µM]	-17%	-2%	2%
Cc1ccc(-c2nnc(CCC(=O)N(C)Cc3nccs3)o2)s1	-2%	3.3%	6%	-8%	5%	2%	2%
CC(C)n1c(-c2ccccc2)nc(=S)c2c1CCCC2	7%	-6.2%	-3%	0%	9%	-14%	1%
COC(=O)c1ccc2c(=O)[nH]c(CSc3nc(-c4ccc(F)cc4)cs3)nc2c1	-1%	-1.8%	-2%	-56%	3%	9%	8%
Cc1cc2c(nn1)CCC/C2=N\O	0%	0.0%	7%	-3%[46.1 µM]	3%	5%	1%
C(=C\c1nc(-c2ccccc2)no1)/c1ccccc1	7%	-0.1%	-8%	-18%	-23%	1%	0%
CCOC(=O)C/C(C)=N/NC(=O)C1CC1(c1ccccc1)c1ccccc1 (configuration not stated)	1%	0.0%	9%	-6%[46.1 µM]	-9%	-8%	-17%
Cc1nnc(SCC(=O)N(C)Cc2ccccc2)[nH]c1=O	-4%	-0.9%	1%	-10%[46.1 µM]	1%	-10%	-4%
Cc1ccc(/C=C2\SC(=S)N(Cc3ccccc3)C2=O)o1	-3%	?	6%	-11%[46.1 µM]	?	-2%	2%
CC1CC(C(F)(F)F)n2nc(C(=O)O)cc2N1 (configuration not stated)	-3%	0.2%	3%	6%[46.1 µM]	-3%	-4%	-2%
CCN1CCN(Cc2ccc(NC(=O)CC3Oc4ccc(C)cc4NC3=O)cc2)CC1 (configuration not stated)	-1%	0.1%	5%	3%[46.1 µM]	-6%	0%	-5%
CCOc1ccc(C(=O)Nc2cccc([N+](=O)[O-])c2)cc1Br	2%	1.5%	4%	-14%	1%	0%	-3%
C=CCn1c(SCC(=O)Nc2ccccc2CC)nnc1-c1ccncc1	-8%	0.0%	5%	-15%[46.1 µM]	5%	-1%	-1%
COC(=O)c1cc(NC(=O)Cc2coc3cc(OC)ccc23)cc(C(=O)OC)c1	?	-1.3%	-8%	?	?	2%	8%
Cc1ccc(C)c(-n2nnnc2SCC(=O)NCCC2=CCCCC2)c1	-15%	-2.2%	-1%	-2%[46.1 µM]	-18%	2%	6%
CCOC(=O)c1sc(C)c(C(=O)NC2CCCCC2)c1N	-13%	0.0%	-1%	-26%[46.1 µM]	-15%	-5%	13%
Cc1ccc(S(=O)(=O)n2cnc3ccccc32)cc1	0%	-1.0%	1%	11%[46.1 µM]	0%	1%	0%
Cc1cc(N2CCCc3ccccc32)n2ncnc2n1	-1%	-0.8%	5%	-2%[46.1 µM]	3%	-6%	1%
O=C(O)COCCN1CCN(C(c2ccccc2)c2ccc(Cl)cc2)CC1 (configuration not stated)	-7%	-0.3%&1.0%	-5%	-6%[46.1 µM]	-7%&-6%	4%&-4%&2%	-4%&11%&3%
Cc1cc(N2CCCC2=O)ccc1S(=O)(=O)Nc1c(C)nn(C)c1C	1%	7.4%	-10%	-5%	-2%	-7%	1%
CC(C)NC(=O)COC(=O)c1ccc(Cl)c(S(N)(=O)=O)c1	10%	-0.2%	-3%	8%	2%	-3%	-2%

Not a retest: entries from further up.
SMILES	GAA inhib	Epigenetic derep	GAA glycogen	NPSR antag	Tau fluor counter	aGlu spleen mod	GLA spleen mod
Cc1cc(N2CCCC2=O)ccc1S(=O)(=O)Nc1c(C)nn(C)c1C	1%	7.4%	-10%	-5%	-2%	-7%	1%
CC(C)NC(=O)COC(=O)c1ccc(Cl)c(S(N)(=O)=O)c1	10%	-0.2%	-3%	8%	2%	-3%	-2%

The main list resumes, starting 3 compounds before the break.
SMILES	GAA inhib	Epigenetic derep	GAA glycogen	NPSR antag	Tau fluor counter	aGlu spleen mod	GLA spleen mod
O=C(O)COCCN1CCN(C(c2ccccc2)c2ccc(Cl)cc2)CC1 (configuration not stated)	-7%	-0.3%&1.0%	-5%	-6%[46.1 µM]	-7%&-6%	4%&-4%&2%	-4%&11%&3%
Cc1cc(N2CCCC2=O)ccc1S(=O)(=O)Nc1c(C)nn(C)c1C	1%	7.4%	-10%	-5%	-2%	-7%	1%
CC(C)NC(=O)COC(=O)c1ccc(Cl)c(S(N)(=O)=O)c1	10%	-0.2%	-3%	8%	2%	-3%	-2%
NS(=O)(=O)c1ccc(NC(=S)N2CCN(c3ccccc3Cl)CC2)cc1	-7%	-1.9%	13%	12%	-15%	-14%	-3%
N=c1c2c(n(Cc3ccc([N+](=O)[O-])cc3)c3c1CCC3)CCCC2	1%	-0.5%	4%	0%	-2%	3%	11%
O=C(Nc1ccccc1)Nc1nc2ccccc2s1	?	-0.2%	9%	0%	-25%	2%	-1%
Cc1cc2cc(CCNC(=O)C(=O)c3c[nH]c4ccccc34)c(=O)[nH]c2cc1C	0%	?	-14%	-4%	-29%	-13%	4%
CC1=NN(c2nc(-c3ccccc3)cs2)C(=O)C1N=Nc1ccccc1 (configuration not stated)	2%	0.0%	5%	-25%	?	6%	6%
COc1ccc(C(=O)Nc2cc(OC)nc(OC)n2)cc1	0%	-1.0%	2%	7%	-8%	5%	5%
S=C(NCc1cccnc1)Nc1ccc(Cl)cc1	7%	-0.9%	5%	1%[46.1 µM]	-2%	3%	6%
Cn1c(NC(=O)c2ccc(S(=O)(=O)N3CCOCC3)cc2)cc(=O)n(C)c1=O	7%	0.0%	2%	9%	-6%	-2%	1%
COCCCNC(=S)N(Cc1ccccc1)Cc1ccc(F)cc1	2%	-0.4%	-8%	-36%	-11%	4%	-5%
COC(=O)n1c(SC)nc2ccccc21	-5%	3.3%	3%	7%[46.1 µM]	3%	-11%	-12%
O=C(Cn1cnc2c(oc3ccccc32)c1=O)NCC1CCCO1 (configuration not stated)	0%	-4.1%	-5%	?	1%	-3%	-3%
COCCCNc1nc2nonc2nc1N1CCC(C(C)N2CCOCC2)CC1 (configuration not stated)	-11%	?	-3%	4%	1%[2.34 µM]	1%	-1%
COc1ccc(N2C(=O)CCC(C(=O)N(C)C3CCCCC3)C2c2ccc(OC)c(OC)c2)cc1 (configuration not stated)	-26%	-0.9%	-1%	-8%[46.1 µM]	-11%	-5%	-1%
CC(C)CC(C(=O)O)N1C(=O)[C@@H]2[C@H](C1=O)[C@@H]1C[C@H]2C(Br)C1Br (some centres not stated)	-5%	0.0%	0%	7%	2%	6%	10%
Cc1ccc(C)n1NC(=O)c1ccccc1[N+](=O)[O-]	0%	-1.9%[10.1 µM]	38%	4%	-15%	-15%	5%
COc1ccc(CCNS(=O)(=O)c2cn(C)c(=O)n(C)c2=O)cc1	-5%	5.9%	4%	17%[46.1 µM]	11%	0%	-5%
O=C(c1cccs1)N1CCN(C2CCCCC2)CC1	-4%	0.0%	2%	-1%[46.1 µM]	-5%	-3%	3%
COc1ccc(OC)c(NC(=O)C2CCCNC2=O)c1 (configuration not stated)	-12%	-0.6%	-9%	-1%[46.1 µM]	9%	-1%	6%
Cc1cccc(C(CC(=O)NCCc2ccccc2)c2ccccc2)c1O (configuration not stated)	-10%	-0.4%	-28%	-53%	-21%	-10%	-17%
CC(=O)OCc1c(C)cc(C)c(/C=C(/C#N)C(N)=O)c1C	2%	-1.6%	-8%	6%	1%	-1%	2%
CN(CCC1CCOCC1)C(=O)CC1C(=O)NCCN1Cc1ccoc1 (configuration not stated)	-6%	0.0%	-12%	-15%	3%	0%	3%
Cc1[nH]n(-c2ccccc2)c(=O)c1/C=N/c1nn[nH]n1	-3%	-0.6%	-11%	-9%	-13%	5%	1%
COc1ccc(N(CC(=O)NCc2ccccc2)S(=O)(=O)c2c(C)noc2C)cc1	2%	0.0%	1%	-19%[46.1 µM]	-2%	-20%	-3%
Oc1ccc(C(=S)N2CCCCC2)cc1Cl	-9%	2.2%	-6%	5%[46.1 µM]	-6%	-5%	1%
O=C(NCCN1C(=O)CSC1=O)c1ccccc1	?	-1.0%	2%	-4%[46.1 µM]	-9%	5%	6%

The listing continues.
SMILES	GAA inhib	Epigenetic derep	GAA glycogen	NPSR antag	Tau fluor counter	aGlu spleen mod	GLA spleen mod
COC(=O)c1ccc(C(=O)OC)c(NC(=O)C(C)(C)C)c1	3%	-0.3%	19%	8%	-1%	-3%	-3%
CN1CCN(c2ccnc(-c3cccc(NS(C)(=O)=O)c3)n2)CC1	·	0.5%	·	·	-7%	1%	6%
CCC(OC(=O)C(NC(=O)c1ccccc1)c1ccccc1)C(=O)Nc1cc(C)on1 (configuration not stated)	-9%	-6.7%	8%	?	-15%	5%	-1%
CC(=O)N1CCN(c2ccc([N+](=O)[O-])cc2C#N)CC1	-9%	4.5%	3%	9%	6%	4%	5%
O=c1c2ccccc2nc(-c2ccccc2)n1CCCN1CCOCC1	7%	-1.0%	2%	-8%[46.1 µM]	0%	-10%	4%
Cc1ccc(NC(=O)CCCN2C(=S)NC(C)(C)CC2C)cc1 (configuration not stated)	5%	-1.2%	-12%	11%	4%	-4%	-9%
O=C(Nc1ccccc1NS(=O)(=O)c1ccc(F)cc1)C1CCC1	0%	-0.1%	-14%	-14%	-2%	-4%	-8%
CCOC(=O)NC(Nc1cc(C)on1)(C(F)(F)F)C(F)(F)F	3%	-1.0%	7%	1%[46.1 µM]	12%	4%	6%
COc1ccccc1-c1nnc(SCc2nc3ccccc3[nH]2)n1C	?	0.0%	0%	-19%[46.1 µM]	-2%	-9%	0%
CCOC(=O)C(=O)/C(C#N)=C/Nc1ccc(Cl)cc1	-3%	-4.8%	13%	-5%[46.1 µM]	-7%	-1%	-6%
Cc1cc2cc(CN3C(=O)c4ccccc4C3=O)ccc2n1C	-12%	3.9%	2%	-44%	7%	-14%	6%
COc1cc(NC(=O)c2cc(C)nc3ccccc23)cc(OC)c1OC	-4%	2.8%	4%	5%	-11%	0%	4%

Single values from the entries so far:
aGlu spleen mod with COCCCNc1nc2nonc2nc1N1CCC(C(C)N2CCOCC2)CC1 (configuration not stated) = 1%
GAA glycogen with Cc1ccc(S(=O)(=O)n2cnc3ccccc32)cc1 = 1%

Bioassay records (PubChem BioAssay)
